Bioassay records (PubChem)
RecA intein inh – blocks M. tuberculosis RecA intein splicing. cell-free RecA intein splicing, fluorescence. inhibition, %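 (about 9 µM by stock and volumes)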. actives 0.75% (n = 290,000). P9WHJ3. AID 2221; in the data active = inhibition above about 30%; inconclusive = no clear call, values can overlap the other calls;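 note: 0% = vehicle wells and 100% = reference inhibitor control wells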
Target sequence (P9WHJ3 whole entry, looked up): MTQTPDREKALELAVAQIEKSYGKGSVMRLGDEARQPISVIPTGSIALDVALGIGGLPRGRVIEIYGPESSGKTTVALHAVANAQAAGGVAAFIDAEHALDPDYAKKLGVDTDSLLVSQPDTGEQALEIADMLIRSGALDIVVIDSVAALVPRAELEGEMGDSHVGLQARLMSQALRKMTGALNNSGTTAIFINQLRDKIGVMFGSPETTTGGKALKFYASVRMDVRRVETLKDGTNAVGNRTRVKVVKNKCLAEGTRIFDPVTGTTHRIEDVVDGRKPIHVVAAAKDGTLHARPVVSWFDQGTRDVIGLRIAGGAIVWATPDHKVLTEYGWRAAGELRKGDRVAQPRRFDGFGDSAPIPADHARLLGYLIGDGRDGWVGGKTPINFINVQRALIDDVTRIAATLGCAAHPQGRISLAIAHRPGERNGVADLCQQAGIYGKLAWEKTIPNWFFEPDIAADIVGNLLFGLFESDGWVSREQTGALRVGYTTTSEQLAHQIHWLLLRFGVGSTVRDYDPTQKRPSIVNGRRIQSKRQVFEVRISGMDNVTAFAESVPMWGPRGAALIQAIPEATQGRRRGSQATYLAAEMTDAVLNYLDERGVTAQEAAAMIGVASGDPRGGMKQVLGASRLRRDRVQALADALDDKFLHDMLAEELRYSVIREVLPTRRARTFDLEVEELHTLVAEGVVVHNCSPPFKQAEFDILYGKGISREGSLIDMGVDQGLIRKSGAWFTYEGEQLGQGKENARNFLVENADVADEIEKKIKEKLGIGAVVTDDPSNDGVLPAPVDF
YopH inh – YopH (Yersinia) phosphatase inhibition. fluorescence Ex485/Em525. inhibition, %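 (about 10 µM by stock and volumes)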. actives 0.16% (n = 140,000);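 active = inhibition of 50% or more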;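 note: controls were vehicle for no effect and minimum signal wells for full effect; inactives centre near -20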
Arbovirus inh – blocks arbovirus infection; arbovirus infection cell-based antiviral screen; inhibition, % at 10 µM; actives 0.37% (n = 200,000); AID 1251;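 active = inhibition from about 30%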;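 note: bluetongue infection of BSR cells; cell survival read as ATP light after 72 h; 0% = infected wells without compound and 100% = uninfected wells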
Mtb bLac sens – beta-lactam sensitization of Mtb H37Rv | M. tuberculosis H37Rv growth with meropenem, percent inhibition; hits of this screen are not shown here | inhibition, % at 25 µM | actives 0.27% (n = 330,000) | AID 434955;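 active = about 74% or more and at least 40 points above the plate without the antibiotic, then above 30% in a dose series; inconclusive = first-round hits that could not be retested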;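 note: growth measured after seven days incubation then overnight dye step; 0% = bacteria only wells and 100% = bacteria with antibiotic; twin plates without the antibiotic show which effects depend on it; some results filed as inactive read as strong as hits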
Mtb H37Rv – M. tuberculosis H37Rv growth inhibitors, H37Rv strain (AID 1626) | M. tuberculosis H37Rv growth inhibition; higher % means a stronger effect | inhibition, % at 10 µM; hits with a dose series show IC50 in µM | actives 0.95% (n = 220,000);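 active = confirmed in a dose series; inconclusive = inhibition above 80% but not taken into the dose series; inactive = below 80% or under 30% at every dose of the series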;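 note: bacteria incubated seven days before Alamar blue readout; 0% = bacteria only wells and 100% = bacteria with antibiotic wells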
Arbovirus inh repeat – further read-out of Arbovirus inh, marked with its call; inhibition, %; measured here: 10K subset replicate screen; many hits read low in the repeat;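 first of two repeat runs on a subset; 0% = infected and 100% = uninfected wells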
The depositor's hits bear a star; u = inconclusive; x = not tested or not shown.

SMILES	RecA intein inh	YopH inh	Arbovirus inh	Mtb bLac sens	Mtb H37Rv	others
COc1ccc2cc(C(C)C(=O)N3CCC(C)CC3)ccc2c1 (stereo unspecified)	7.8	x	x	-5	x
Cc1cccc(C(=O)N(Cc2nc3ccccc3c(=O)[nH]2)C2CCCC2)c1	1.6	x	0	-9	-4%
CC(=O)[C@@]1(O)CC[C@H]2[C@@H]3C[C@H](C)C4=CC(=O)CC[C@]4(C)[C@H]3CC[C@@]21C	1.1	-53	13	90	-5%
CCOC(=O)c1c(C)[nH]c(C(=O)COC(=O)CNC(=O)C2CCCCC2)c1C	3.1	-9	-2	7	-3%
COc1ccc(C(OC(=O)c2ccco2)C(=O)NC2CCCC2)cc1 (stereo unspecified)	-0.2	x	x	4	x
CCOC(=O)N1CCN(C(=O)C2CCCN(S(=O)(=O)c3cc(C)ccc3OC)C2)CC1 (stereo unspecified)	-2.7	-6	1	-3	-4%
CC1CC(C)CN(CCCNS(=O)(=O)c2cc(Br)cc3c2N(C(=O)C2CC2)CC3)C1 (stereo unspecified)	1.7	x	x	-4	x
CCC(C)(C(=O)NC1CCCCC1)N(C(=O)C1CCC(=O)N1)c1ccc(C)cc1 (stereo unspecified)	x	-12	6	-1	-8%	Arbovirus inh repeat=6
CCOC(=O)CSc1cc(-c2ccccc2)nc2ncnn12	6.3	x	x	94	55%
CCc1ccc(C(=O)COC(=O)c2cc([N+](=O)[O-])ccc2NCCO)cc1	1.0	-19	-6	1	8%
CC1CCCCN1CCNC(=O)c1cc2c(-c3ccccc3F)nn(C)c2s1 (stereo unspecified)	-1.1	-41	-5	-1	6%	Arbovirus inh repeat=-18
Cc1ccc(C)c(OCCC(=O)NNC(=O)c2ccccc2F)c1	-0.8	x	x	-1	x
O=C(Nc1cc2c3c(c1)C1CCCC1CN3CC1CCCC21)c1ccccc1 (stereo unspecified)	9.8	-23	4	4	0%
CCc1cccc(C)c1NC(=O)CSc1ncn[nH]1	-0.3	0	8	-15	-3%
O=C(Nc1ccccc1N1CCCCC1)c1ccc(N2C(=O)c3ccccc3C2=O)cc1	0.4	5	9	0	-7%
COc1ccc(S(=O)(=O)NCc2ccccn2)cc1Br	-3.8	x	x	-7	x
CCOC(=O)CNC(=O)CSc1nnc(NC(=O)c2ccc(S(=O)(=O)N3CCOCC3)cc2)s1	-1.1	x	x	-23	x
O=C1CC(N2CCC(O)(c3ccc(Br)cc3)CC2)C(=O)N1c1ccc(Cl)cc1 (stereo unspecified)	-1.2	-34	7	-3	-7%
CC(C)(C)NC(=O)COC(=O)c1ccc(F)cc1Cl	0.3	x	0	11	-3%
CCOC(=O)c1ccc(NC(=O)CCc2nnc3ccc(N4CCN(C)CC4)nn23)cc1	-3.4	x	x	92	x

By substructure, the compounds so far with a Cl atom.
SMILES	RecA intein inh	YopH inh	Arbovirus inh	Mtb bLac sens	Mtb H37Rv	others
O=C1CC(N2CCC(O)(c3ccc(Br)cc3)CC2)C(=O)N1c1ccc(Cl)cc1 (stereo unspecified)	-1.2	-34	7	-3	-7%
CC(C)(C)NC(=O)COC(=O)c1ccc(F)cc1Cl	0.3	x	0	11	-3%

(further entries)
SMILES	RecA intein inh	YopH inh	Arbovirus inh	Mtb bLac sens	Mtb H37Rv	others
CCOC(=O)C1CCN(C(=O)CSCc2nc(-c3ccc(OCC)cc3)oc2C)CC1	-3.6	-31	5	82	-12%
Cc1nn(-c2ccccc2)c(Cl)c1/C=C1/C(=N)N2N=C(C(C)C)SC2=NC1=O	3.3	-32	3	-7	2%
CN(CCCC(=O)Nc1ccc(Br)cc1F)S(=O)(=O)c1ccccc1	2.0	x	x	-2	x
CC12CCC(=O)N1C(C(=O)Nc1ccc(Cl)c(Cl)c1)CS2 (stereo unspecified)	0.9	x	x	0	x
CCOC(=O)C1CCN(C(=O)CN2C(=O)CSc3ccc(S(=O)(=O)N4CCOCC4)cc32)CC1	2.5	x	x	5	x
CN1CCCC(OC(=O)c2cc(Br)ccc2Cl)C1 (stereo unspecified)	-1.3	-30	-3	-9	0%
Nc1c(-c2cccc(Cl)c2)cnn1-c1cccc([N+](=O)[O-])c1	4.0	-51	3	-5	3%
CCOC(=O)c1ccc2ncc(C(=O)OCC)c(Nc3ccc(N4CCOCC4)cc3)c2c1	0.5	-20	-4	8	11µM*
CC(C)Cc1nnc(NC(=O)CCC(=O)N2CCCCC2)s1	-0.2	x	x	-5	x
COc1cccc(C(=O)Nc2ccccc2C(=O)N2CCCC2)c1	-2.3	-22	-2	-4	1%
O=C(COC(=O)c1ccc(Oc2ccccc2)cc1)Nc1nnc(-c2ccccc2)o1	9.0	-22	-21	-8	u
CC(=O)c1c(C)[nH]c(C(=O)N(C)C(c2ccccc2)c2ccccc2)c1C	1.1	x	-16	4	3%
COc1cccc(NC(=O)c2ccco2)c1	-0.7	-40	6	-7	4%	Arbovirus inh repeat=4
O=C1OCCC1Sc1nnc(-c2cccs2)n1Cc1ccccc1 (stereo unspecified)	-2.5	-23	-3	-3	5%
CCC(C)(C)c1nnc(NC(=O)c2ccc([N+](=O)[O-])cc2)s1	3.0	-16	-1	52	-1%
COc1ccc(CCNC(=O)COC(=O)/C=C/c2cccs2)cc1OC	5.1	x	0	-9	9%
COCCNC(=O)C(OC(=O)c1cccs1)c1ccc(F)cc1 (stereo unspecified)	-0.6	x	-5	2	-8%
CN1C(=O)[C@@H]2[C@H](C1=O)[C@@H]1C(=O)Nc3ccccc3C(=O)N1[C@@H]2c1ccc(Br)cc1	2.0	x	x	2	x
Cc1ccccc1NC(=O)NC1(C(=O)N2CCCC2)CCCCC1	3.1	x	-1	-13	-3%
COc1ccc(/C=C/C(=O)NNC(=O)c2cc(C)oc2C)cc1	0.1	x	x	0	x
CC(=O)N1CCC(=NNc2ccc(S(N)(=O)=O)cc2[N+](=O)[O-])CC1	0.6	x	x	-1	-6%
COc1ccc(Cl)cc1C(=O)Nc1cccnc1	-1.4	x	x	1	x
CCN(CCNC(=O)C1CC(=O)N(CCc2ccccc2)C1)c1ccccc1 (stereo unspecified)	-2.0	-17	-10	-13	-1%
CN1CC(=O)N(CC(=O)NCc2ccc(F)cc2)c2ccccc2C1=O	-0.3	-5	7	1	-11%
CCCn1c(SCC(=O)NC2CCCC(C)C2C)n[nH]c1=O (stereo unspecified)	-2.2	3	-1	0	-2%
COCC(=O)N1CCC(Oc2ccc(C(=O)N3CCCCC3COC)cc2)CC1 (stereo unspecified)	3.0	x	x	-2	x
COCCNC(=O)CSc1nc2sccc2c(=O)n1-c1ccccc1	0.6	x	x	-3	x
CC1(C)CC(CC(=O)NNc2nc(-c3ccccc3)cs2)C(=O)O1 (stereo unspecified)	-1.7	-8	-4	75	68%
O=C(NCC(c1ccco1)N1CCN(c2ccc(F)cc2)CC1)c1ccco1 (stereo unspecified)	4.3	x	x	-17	x
COc1ccc(CC(=O)Nc2ccccc2-c2ccccc2)cc1OC	1.3	x	x	-1	x
COc1ccccc1OCC(=O)Nc1ccc(O)cc1C(=O)O	-12	-9	2	-3	0%
CC(C)NC(=S)N(C)C1(c2ccccc2Cl)CCCCC1=O (stereo unspecified)	3.1	-30	9	0	3%
CC12CC3(C)CC(C)(C1)CC(C(=O)Nc1nn[nH]n1)(C2)C3	0.0	-29	5	-4	-1%
O=C(CCC1CCCN(C(=O)Cn2cnnn2)C1)NCc1ccccc1F (stereo unspecified)	1.6	x	6	1	2%
COC(=O)COc1ccc2c(-c3ccc(OC)cc3)cc(=O)oc2c1	2.6	-5	8	100	u
COc1ccc(C2C(C(=O)O)CCC(=O)N2c2ccc(C)cc2)cc1OC (stereo unspecified)	-1.4	x	x	-8	-3%
COc1ccc(C(c2nnnn2CS(=O)(=O)c2ccc(C)cc2)N2CCN(Cc3ccccc3)CC2)cc1 (stereo unspecified)	4.2	-2	x	-2	17%
O=C(CC1C(=O)NCCN1CC1CCCCC1)NCCCN1CCOCC1 (stereo unspecified)	-1.9	x	x	5	x
O=[N+]([O-])c1cc2c(cc1/C=N/Nc1nc(Nc3ccccc3)nc(N3CCCCC3)n1)OCO2	-1.1	-31	-16	2	0%
Cc1cc(S(=O)(=O)N2CCCC2)ccc1OCC(=O)N1CCOCC1	2.9	34	2	-2	-3%

Six compounds from above, arranged by count of non-hydrogen atoms, smallest number first:
SMILES	RecA intein inh	YopH inh	Arbovirus inh	Mtb bLac sens	Mtb H37Rv	others
CC12CC3(C)CC(C)(C1)CC(C(=O)Nc1nn[nH]n1)(C2)C3	0.0	-29	5	-4	-1%
CC(C)NC(=S)N(C)C1(c2ccccc2Cl)CCCCC1=O (stereo unspecified)	3.1	-30	9	0	3%
COc1ccccc1OCC(=O)Nc1ccc(O)cc1C(=O)O	-12	-9	2	-3	0%
COC(=O)COc1ccc2c(-c3ccc(OC)cc3)cc(=O)oc2c1	2.6	-5	8	100	u
COc1ccc(C2C(C(=O)O)CCC(=O)N2c2ccc(C)cc2)cc1OC (stereo unspecified)	-1.4	x	x	-8	-3%
O=[N+]([O-])c1cc2c(cc1/C=N/Nc1nc(Nc3ccccc3)nc(N3CCCCC3)n1)OCO2	-1.1	-31	-16	2	0%

The listing continues:
SMILES	RecA intein inh	YopH inh	Arbovirus inh	Mtb bLac sens	Mtb H37Rv	others
CC(C)C(C(=O)NCc1ccco1)N(C(=O)CNS(=O)(=O)c1ccccc1)c1ccccc1 (stereo unspecified)	-0.3	x	1	-8	-4%
COc1cc(Cl)cc(C(=O)O)c1OCC(=O)O	-7.9	x	6	8	-4%
CCOC(=O)C(NC(=O)CCC(=O)Nc1ccc(S(N)(=O)=O)cc1)C(O)c1ccccc1 (stereo unspecified)	1.5	-28	0	x	-1%
CC(C)n1c(SCc2ccc(Cl)cc2)nc2c1c(=O)[nH]c(=O)n2C	x	-30	-15	2	9%
O=C(O)c1ccoc1CN1CCCCC1	-3.4	-39	1	-5	-2%
CCOC(=O)/C(C#N)=C1/C=Nc2ccccc2N1	x	-21	3	2	-6%	Arbovirus inh repeat=1
O=C(CN1C(=O)NC2(CCCC2)C1=O)N1CCc2ccccc2C1	-0.6	x	7	2	5%
Cc1nnc(NC(=O)C23CC4CC(CC(C4)C2)C3)s1	0.5	x	x	4	x
COc1ccc(C)cc1NC(=O)C(C)N1CCOCC1 (stereo unspecified)	-1.3	x	x	0	x
Cc1ncc([N+](=O)[O-])n1S(=O)(=O)c1cc(Br)ccc1Br	-6.5	x	x	-3	x
CCCCCOC(=O)C(C)c1c(C)[nH]c(=S)[nH]c1=O (stereo unspecified)	x	-5	2	-12	-8%
O=C(NC1CCCC1)C1=COCCO1	5.4	-10	-2	-2	3%
COC(=O)C1=C(C)NC2=C(C(=O)CC(C)(C)C2)C1c1ccsc1 (stereo unspecified)	-6.7	-13	2	4	5%
CCC(=O)c1ccc(OC(=O)/C=C/c2cc(OC)c(OC)c(OC)c2)cc1	0.1	x	x	2	x
O=C(CSCc1ccccc1)N/N=C/c1ccc(OCC(=O)N2CCCCC2)cc1	0.2	-24	-2	-2	10%
CCCc1nnc(NS(=O)(=O)c2ccc(OC)cc2)s1	-1.3	x	-1	2	-1%
CCOCC(=O)Nc1nc2c(s1)C(=O)CC(C)(C)C2	0.6	-16	-1	0	-1%	Arbovirus inh repeat=4
O=C(CNc1ccc2ccccc2c1)N/N=C/c1ccncc1	4.4	x	x	92	x
CC1(C)CC(=O)C(C=NCCN2CCN(C(=S)Nc3cccc(Cl)c3)CC2)=C(O)C1	-0.7	-4	15	-5	2%
CCCC(=O)NC(=S)c1c(C)n(C)n(-c2ccccc2)c1=O	0.2	x	1	-3	33%
CC(=NCCCn1ccnc1)c1c(C)[nH]n(-c2ccc([N+](=O)[O-])cc2)c1=O	-0.7	x	-6	0	-2%
C[C@]12CC[C@H](O)C[C@@H]1CC[C@@H]1[C@@H]2CC[C@]2(C)[C@@H](C(=O)O)C[C@@H]12	-0.6	x	x	-3	x
CCOP(=O)(OCC)C(NCc1ccccc1)c1ccc(Br)cc1 (stereo unspecified)	1.0	-12	9	-4	-7%
COC(=O)c1cc(OC)c(OC)cc1NC(=O)Nc1ccccc1F	-0.4	x	x	-3	x
CCc1cc2c3c(c1)C1(C(=O)N3C(C)(C)C=C2C)C(C#N)=C(N)Oc2[nH]c(=O)[nH]c(=O)c21 (stereo unspecified)	78*	x	-8	46	17%
O=C(CCC1CCCCC1)NCCS(=O)(=O)N1CCN(c2ccccc2)CC1	-0.5	x	x	-2	x
Cc1ccc(NC(=O)c2cc(=O)[nH]c3ccc(S(=O)(=O)N4CCOCC4)cc23)nc1	-1.5	x	x	-2	x
O=C(OCc1nc2ccccc2c(=O)[nH]1)c1cccs1	-1.6	-47	-2	-1	4%
O=C(NNC(=O)c1cccs1)c1ccc(S(=O)(=O)N2CCCCC2)cc1	-2.6	-10	7	-2	1%

Only part of the results is shown, so the mix of outcomes need not match the whole.
